SARS PLP yeast = qHTS of Yeast-based Assay for SARS-CoV PLP | Potency, µM (series often up to 32.9 µM), without a hit: at the highest dose activity, positive = growth rescue | S. cerevisiae expressing SARS-CoV PLpro, growth rescue; control for the full effect not named in the record | actives 0.19% (n = 330,000) | AID 485353, 2010; also: 0% is about no effect; nearly all actives have a fitted effect of over 55% in size; growth read by luminescence after 48 h
Lassa entry inh = qHTS for Inhibitors of binding or entry into cells for Lassa Virus; Potency, µM (doses to about 37.9 µM), without a hit: top-dose activity change, negative = inhibition, usual class: inhibitors; Lassa virus pseudotype entry inhibition, cell reporter; control for the full effect not named in the record; actives 1.2% (n = 300,000); active means well fitted inhibition curve with a large enough effect; inconclusive means small, poorly fitted or top-dose-only effect, or effect the other way; inactive means flat fitted curve, though single readings scatter; tested in HEK293 cells; also: % is scaled to controls: 0 for no effect and ±100 for the full control effect; nearly all actives have a fitted effect of over 50% in size; luciferase read-out
NS1 inh = qHTS Assay for Inhibitors of Influenza NS1 Protein Function. actives 0.4% (n = 270,000). S. cerevisiae slowed by influenza A NS1, growth recovery by OD600. AID 2326, 2010. Potency, µM (highest dose often 46.1 µM), for inactives: at the top dose activity, positive = more growth; also: actives are rising curves; nearly all actives have a fitted effect of over 50% in size
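S. cerevisiae expressing influenza A NS1, grown in glucose, washed, then diluted 1:100 into pH 6.0 -URA galactose medium with 23 nl compound. Growth recovery read as OD600; NS1-free strain serves as control.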
Marburg entry inh = qHTS for inhibitors of binding or entry into cells for Marburg Virus; Marburg virus pseudotyped entry inhibition, cell reporter; control for the full effect not named in the record; about a third of the inactives were read at about 46 µM; Potency, µM (titrated, usually from 37.8 µM), without a hit: at the highest dose activity change, negative = inhibition, most hits filed as inhibitors; actives 1.8% (n = 300,000); active = well fitted inhibition curve with a large enough effect; inconclusive = small, poorly fitted or top-dose-only effect, or effect the other way; inactive = flat fitted curve, though single readings scatter; tested in HEK293 cells; about a fifth of its hits are not listed in these tables; also: % is scaled to controls: 0 for no effect and ±100 for the full control effect; luciferase read-out
Cruzain inh noDet = qHTS Assay for Promiscuous and Specific Inhibitors of Cruzain (without detergent). Cruzipain (Trypanosoma cruzi), P25779. purified cruzain, Z-FR-AMC fluorescence, no detergent. Potency, µM, without a hit: max response, negative = inhibition, usual class: inhibitors. actives 2.3% (n = 200,000); active = well fitted curve in the direction sought with a large enough effect; inconclusive = small, poorly fitted or top-dose-only effect, or another doubt; inactive = no such curve, though single readings can be large; an effect the other way counts as inactive or inconclusive;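 also: plate controls were enzyme without inhibitor for no effect and buffer without enzyme for full effect; nearly all actives have a fitted effect of over 40% in size; top concentration of the series not given in the record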
Target sequence (P25779 123-467 limits assumed): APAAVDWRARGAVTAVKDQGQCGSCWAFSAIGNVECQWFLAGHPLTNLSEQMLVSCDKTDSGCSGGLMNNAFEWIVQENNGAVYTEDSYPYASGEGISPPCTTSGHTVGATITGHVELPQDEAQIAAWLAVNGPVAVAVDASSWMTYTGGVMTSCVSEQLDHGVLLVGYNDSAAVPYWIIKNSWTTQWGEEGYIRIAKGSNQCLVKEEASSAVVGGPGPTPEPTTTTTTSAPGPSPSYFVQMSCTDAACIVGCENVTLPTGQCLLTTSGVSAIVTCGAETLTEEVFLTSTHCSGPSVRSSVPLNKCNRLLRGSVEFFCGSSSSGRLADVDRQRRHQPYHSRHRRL
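Purified cruzain at 1.5 nM, pre-incubated 15 min with compound at room temperature in 100 mM sodium acetate pH 5.5, 5 mM DTT, 0.00005% Triton X-100. Reaction started with 2 uM Z-FR-AMC; AMC fluorescence increase over 60 s gives rate.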
RE007 growth inh = qHTS Assay for Inhibitors of the HIV-1 protein Vpr. S. pombe RE007 Vpr strain, BacTiter-Glo ATP luminescence, 24 h; control for the full effect not named in the record. Potency, µM (series often up to 92.2 µM), inactives show at the highest dose activity change, negative = less growth. actives 0.21% (n = 360,000); active = well fitted falling curve with a large enough effect; inconclusive = small, poorly fitted or top-dose-only effect; inactive = no such curve, though single readings can be large or run the other way;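 also: % is scaled to controls: 0 for no effect and ±100 for the full control effect; nearly all actives have a fitted effect of over 50% in size; the assay follows cell death caused by Vpr and the record does not say whether a fall means rescue or toxicity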
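Fission yeast RE007 carrying one integrated HIV-1 vpr copy, seeded at OD 0.01 in PMG+AL medium with 23 nL pinned compound. Grown 24 h at 30 degrees; viability read by BacTiter-Glo luminescence after 5 min.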
Cruzain inh Det = qHTS Assay for Promiscuous and Specific Inhibitors of Cruzain (with detergent); Cruzipain (Trypanosoma cruzi), P25779; purified cruzain, Z-FR-AMC fluorescence, 0.01% Triton; Potency, µM, inactives show max response, negative = inhibition, most hits filed as inhibitors; actives 0.43% (n = 200,000); AID 1478, 2009; active = well fitted curve in the direction sought with a large enough effect; inconclusive = small, poorly fitted or top-dose-only effect, or another doubt; inactive = no such curve, though single readings can be large; an effect the other way counts as inactive or inconclusive;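 also: plate controls were neutral wells for no effect and buffer without enzyme for full effect; nearly all actives have a fitted effect of over 40% in size; top concentration of the series not given in the record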
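Read-out: AMC fluorescence (360 nm excitation, 450 nm emission), four reads over 2 min, first-to-third difference used. Conditions: cruzain 1.5 nM, Z-FR-AMC 2 uM, pH 5.5 acetate, 5 mM DTT, 0.01% Triton X-100.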
2A StopGo = High Throughput Screening for Foot and Mouth Disease Virus Antivirals; human cells with a luciferase reporter of 2A StopGo recoding; control for the full effect not named in the record; Potency, µM (top dose mostly 57.9 µM), without a hit: at the highest dose signal change, negative = less light; actives 1.2% (n = 410,000); AID 1159524, 2015; active = well fitted falling curve with a large enough effect; inconclusive = small, poorly fitted or top-dose-only effect; inactive = no such curve, though single readings can be large or run the other way; tested in HEK293T cells; also: % is scaled to controls: 0 for no effect and ±100 for the full control effect; nearly all actives have a fitted effect of over 45% in size; luciferase light after 4 h
* hit, by the source's call; ? = inconclusive; · = not tested or not shown; & = joins results of further samples; [ ] = remark or other dose. Unless noted, calls follow the shape of the dose curve; as a rule, active means well fitted rising curve with a large enough effect; inconclusive means small, poorly fitted or top-dose-only effect; inactive means no such curve, though single readings can be large or run the other way. Potency is read from the fitted curve at half-maximal effect. Rows are unselected; any-hit rate near 4.5%.

Structure	SARS PLP yeast	Lassa entry inh	NS1 inh	Marburg entry inh	Cruzain inh noDet	RE007 growth inh	Cruzain inh Det	2A StopGo
CC(NC(=O)C1CCCN(S(=O)(=O)N2CCOCC2)C1)c1ccccc1 (centres undefined)	-1%	·	-9%	·	·	-2%	·	-13%
COCCn1c(SC(C)C(=O)NCC2CCCO2)nc2scc(-c3ccc(F)cc3)c2c1=O (centres undefined)	-5%	-13%	·	?	·	1%	·	0%
CC(C)OCCCNC(=O)C1CCC(CNS(=O)(=O)c2ccc(Cl)cc2)CC1 (centres undefined)	-10%	15%	7%	38%	-4%	-14%	2.1%	-9%
O=c1c2cc([N+](=O)[O-])cc([N+](=O)[O-])c2[nH]n1-c1ccccc1	0%	15%[46.1 µM]	8%	11%[46.1 µM]	·	-3%	·	-24%
Cc1cccc(CNC(=O)Cn2ccc3cc(S(=O)(=O)N4CCCC4)ccc32)c1	8%	?	7%	·	-14%	14%	-2.7%	7%&4%
COc1ccc(C(C)NS(=O)(=O)Cc2ccccc2)cc1 (centres undefined)	-2%	7%	16%	12%	·	2%	·	20%
CCOc1ccc(NC(=O)c2ccc(NC(=O)Cc3n[nH]c(=O)c4ccccc34)cc2)cc1	2%	8%[46.1 µM]	8%	?	·	-1%	·	-3%
COc1ccc(-c2noc(C(C)NC(=O)c3ccco3)n2)cc1 (centres undefined)	·	24%[46.1 µM]	·	2%[46.1 µM]	-2%	·	-1.8%	-4%
COc1ccc(-n2nc(C(=O)NCC(=O)N3CCN(c4ccccc4F)CC3)c3ccccc3c2=O)cc1	2%	?	9%	?	·	-13%	·	13%
CCOc1ccc2nc(N(CCCN(C)C)C(=O)c3ccc(S(=O)(=O)N4CCCC4)cc3)sc2c1	-1%	·	-12%	·	·	4%	·	-20%
C[C@@H]1CN(c2c(F)c(F)c3c(=O)c(C(=O)O)cn(C4CC4)c3c2F)C[C@H](C)N1	-2%	·	1%	·	·	3%	·	3%
Cc1nnc(SCC(=O)N2CC(C)OC(C)C2)n1-c1ccccc1 (centres undefined)	5%	-12%	-3%	5%[46.1 µM]	·	12%	·	-18%
CC(C)N(C(=O)c1ccc2nc(-c3ccccc3)c(-c3ccccc3)nc2c1)C(C)C	-36%	?	11%	-10%	?	-12%	-6.1%	-36%
CCOCCCNc1nc(-c2ccccc2)nc2ccccc12	-2%	·	-45%	·	·	-17%	·	-22%
CC1CCCCC1NC(=O)CCS(=O)(=O)c1cc2c(cc1Cl)NC(=O)CO2 (centres undefined)	-1%	-2%[46.1 µM]	14%	11%[46.1 µM]	·	10%	·	-8%
NC(=O)c1ccccc1OCC(=O)NC12CC3CC(CC(C3)C1)C2	7%	-1%	10%	?	-5%	10%	3.5%	-21%
CCOC(=O)Cn1nc(-c2ccc(C)cc2)c2ccccc2c1=O	-1%	9%	-1%	-18%[46.1 µM]	·	22%	·	15%
c1ccc2[nH]c(NCc3ccc4c(c3)OCO4)nc2c1	0%	-29%[46.1 µM]	1%	?	·	-18%	·	-2%
C=CCOc1ccc(/C=C/C(=O)OCC(=O)NCC2CCCO2)cc1 (centres undefined)	-2%	-16%	·	?	·	-7%	·	-2%
Cc1nnc(NC(=O)COc2ccc3c(C)cc(=O)oc3c2)s1	0%	1%	?	-12%	-3%	3%	-8.0%	6%
C=CCN(CC=C)C(=O)c1cc(Cl)ccc1[N+](=O)[O-]	2%	0%	12%	?	13%	0%	-2.1%	-24%
CCN1CCN(CCCNc2ncnc3nc[nH]c23)CC1	?	·	2%	0%	9%	-21%	5.1%	-6%
O=C(O)CC(NC(=O)c1sc2ccccc2c1Cl)c1ccc(OC2CCCC2)cc1 (centres undefined)	-8%	1%	·	-13%[46.1 µM]	·	14%	·	-6%
COc1ccc2nc(SCC(=O)NCc3ccccc3)[nH]c2c1	-9%	·	16%	·	·	12%	·	3%
CN(CC(=O)NCCc1ccc(S(N)(=O)=O)cc1)CC(=O)Nc1ccccc1Cl	2%	-7%	·	?	·	-7%	·	-9%
COc1cc(CNCc2cccs2)cc(Br)c1OC	6%	9%	3%	-11%	5%	0%	1.8%	-17%
CC1CCCC(C)N1NC(=O)c1ccc(Cl)c(S(N)(=O)=O)c1 (centres undefined)	0%	·	2%	·	8%&0%	5%	-7.0%&-1.7%	-1%&-1%
COc1ccccc1-n1nnnc1SCC(=O)NCC1(N2CCCCC2)CCCCC1	·	14%	·	?	·	-10%	·	-10%
Cc1cccc(NC(=S)Nc2ccc(Br)cc2)c1	-13%	-25%	-206%	-6%	-7%	-4%	-3.2%	40%[activator]
CCN(CC)c1ccc(NC(=O)c2cc(Cl)ccc2OC)cc1	-10%	-1%	-14%	?	-2%	-9%	-6.2%	5%
CSc1sc(C)cc1C=O	1%	-21%	·	17%[46.1 µM]	·	-4%	·	-8%
Cn1c(N)c(S(=O)(=O)N2CCN(C(=O)c3ccco3)CC2)c(=O)n(C)c1=O	2%	10%[46.1 µM]	·	-1%[46.1 µM]	·	20%	·	-7%
O=C(COc1cccc(Cl)c1)N1CCN(CCc2ccncc2)CC1	·	12%[46.1 µM]	·	0%[46.1 µM]	10%	·	-1.6%	-4%
COc1ccccc1/C=C/C=NC1C(=O)N(c2ccccc2)[N+](C)=C1C (centres undefined)	0%	15%[46.1 µM]	8%	?	·	-23%	·	-18%
CC(C)Oc1ccc(/C(O)=C2/C(=O)C(=O)N(CCN(C)C)C2c2ccco2)cc1 (centres undefined)	-1%	15%	-8%	22%[46.1 µM]	-6%	-8%	-2.5%	1%
CC(CNS(=O)(=O)c1ccccc1)(c1ccccc1)N1CCOCC1 (centres undefined)	-4%	·	-7%	·	5%	5%	-0.6%	-5%
Cc1cc(N2CCOCC2)nc(-c2ccccc2O)n1	11%	?	-3%	?	-3%	-24%	-4.0%	0%
Cc1noc(NS(=O)(=O)c2ccc(NC(=O)CCC3CCCCC3)cc2)c1C	-16%	?	-51%	-6%	?	6%	-2.8%	-5%
COc1ccc(OC)c(CNCCc2ccc(OC)c(OC)c2)c1	-8%	25%[46.1 µM]	-11%	-24%[46.1 µM]	·	-2%	·	-6%
CCOC(=O)c1ccccc1NC(=O)Cc1ccc(OC)c(S(=O)(=O)N2CCOCC2)c1	4%	0%[46.1 µM]	·	?	·	-7%	·	-9%

Entries shown so far with two or more sulfur atoms (3):
Structure	SARS PLP yeast	Lassa entry inh	NS1 inh	Marburg entry inh	Cruzain inh noDet	RE007 growth inh	Cruzain inh Det	2A StopGo
COCCn1c(SC(C)C(=O)NCC2CCCO2)nc2scc(-c3ccc(F)cc3)c2c1=O (centres undefined)	-5%	-13%	·	?	·	1%	·	0%
CCOc1ccc2nc(N(CCCN(C)C)C(=O)c3ccc(S(=O)(=O)N4CCCC4)cc3)sc2c1	-1%	·	-12%	·	·	4%	·	-20%
CSc1sc(C)cc1C=O	1%	-21%	·	17%[46.1 µM]	·	-4%	·	-8%

Going on with the list.
Structure	SARS PLP yeast	Lassa entry inh	NS1 inh	Marburg entry inh	Cruzain inh noDet	RE007 growth inh	Cruzain inh Det	2A StopGo
N#Cc1ccc(C(=O)Nc2cc3nn(-c4ccccc4)nc3cc2Cl)c(F)c1	·	4%[46.1 µM]	·	22%[46.1 µM]	-7%	·	3.8%	20%
COc1ccccc1NC(=O)CSc1nnnn1C1CCCC1	-2%	10%[46.1 µM]	0%	-3%[46.1 µM]	·	-12%	·	4%
COc1cccc(NC(=O)C(Sc2nnc(-c3ccncc3)n2-c2ccc(Cl)cc2)c2ccccc2)c1 (centres undefined)	5%	?	14µM*	?	?	-6%	-5.2%	-23%
CC1(CNC(=O)C(=O)NCC2(C)CO2)CO1 (centres undefined)	·	?	·	?	·	9%	·	-2%
Cc1onc(C(=O)NCc2cccs2)c1[N+](=O)[O-]	0%	15%[46.1 µM]	·	14%[46.1 µM]	·	4%	·	-11%
CC1CC(C)CN(S(=O)(=O)c2ccc3c(c2)oc(=O)n3CC(=O)N2CCOCC2)C1 (centres undefined)	4%	·	-14%	·	0%	-7%	3.3%	-1%
CCC(C)c1ccccc1NC(=O)CN(C)CC(=O)Nc1ccccc1SC (centres undefined)	-2%	-22%	-2%	?	·	-2%	·	-20%
Cn1cnc(S(=O)(=O)N2CCC(C(=O)NCc3ccc(F)cc3)CC2)c1	·	10%[46.1 µM]	·	·	8%	·	0.7%	21%
CCc1cc[n+](-c2nc([O-])sc2C=O)cc1	-1%	13%	2%	17%	-1%	-2%	-1.2%	0%
COc1ccc(C2(CNC(=O)C(=O)Nc3ccc(C)c(Cl)c3)CCCC2)cc1OC	·	-9%[46.1 µM]	·	9%[46.1 µM]	0%	·	0.7%	?
Cc1c(CC(=O)NCCCCCC(=O)O)c(=O)oc2cc3c(cc12)CCC(C)(C)O3	-2%	-23%	2%	?	·	10%	·	-16%
CC(C)NC(=O)C(c1ccc(F)cc1)N(C(=O)CCC(=O)Nc1ccccn1)C1CCCCC1 (centres undefined)	0%	4%	-25%	-15%[46.1 µM]	·	-14%	·	-5%
O=C(NC(=S)Nc1ccc(N2CCOCC2)cc1)c1ccco1	-10%	0%	-4%	?	-6%	·	-3.6%	27%

Whole records as entered above. Order of screens: SARS PLP yeast	Lassa entry inh	NS1 inh	Marburg entry inh	Cruzain inh noDet	RE007 growth inh	Cruzain inh Det	2A StopGo
CC(C)NC(=O)C(c1ccc(F)cc1)N(C(=O)CCC(=O)Nc1ccccn1)C1CCCCC1 (centres undefined) as listed: 0%	4%	-25%	-15%[46.1 µM]	·	-14%	·	-5%
N#Cc1ccc(C(=O)Nc2cc3nn(-c4ccccc4)nc3cc2Cl)c(F)c1 as listed: ·	4%[46.1 µM]	·	22%[46.1 µM]	-7%	·	3.8%	20%
